High-throughput results deposited in PubChem BioAssay by National Center for Advancing Translational Sciences (NCATS).
Rango complex inh = Rango-importin beta binding inhibition | 340,000 tested, 0.031% active | Q14974 | Potency, µM (titrated, usually from 92.2 µM), inactives show at the top dose inhibition of complex formation | Rango CFP/YFP FRET sensor + importin beta, 45 min | AID 540263; active = rising FRET ratio curve, often small or poorly fitted; inconclusive = mostly compound fluorescence or quenching in the first reads; inactive = flat curves in all reads;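 note: potency is the fitted concentration of half-maximal effect; 0% = DMSO wells and 100% = buffer wells lacking importin beta; nearly all actives have a fitted effect of over 15% in size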
Target sequence (Q14974 whole entry, looked up): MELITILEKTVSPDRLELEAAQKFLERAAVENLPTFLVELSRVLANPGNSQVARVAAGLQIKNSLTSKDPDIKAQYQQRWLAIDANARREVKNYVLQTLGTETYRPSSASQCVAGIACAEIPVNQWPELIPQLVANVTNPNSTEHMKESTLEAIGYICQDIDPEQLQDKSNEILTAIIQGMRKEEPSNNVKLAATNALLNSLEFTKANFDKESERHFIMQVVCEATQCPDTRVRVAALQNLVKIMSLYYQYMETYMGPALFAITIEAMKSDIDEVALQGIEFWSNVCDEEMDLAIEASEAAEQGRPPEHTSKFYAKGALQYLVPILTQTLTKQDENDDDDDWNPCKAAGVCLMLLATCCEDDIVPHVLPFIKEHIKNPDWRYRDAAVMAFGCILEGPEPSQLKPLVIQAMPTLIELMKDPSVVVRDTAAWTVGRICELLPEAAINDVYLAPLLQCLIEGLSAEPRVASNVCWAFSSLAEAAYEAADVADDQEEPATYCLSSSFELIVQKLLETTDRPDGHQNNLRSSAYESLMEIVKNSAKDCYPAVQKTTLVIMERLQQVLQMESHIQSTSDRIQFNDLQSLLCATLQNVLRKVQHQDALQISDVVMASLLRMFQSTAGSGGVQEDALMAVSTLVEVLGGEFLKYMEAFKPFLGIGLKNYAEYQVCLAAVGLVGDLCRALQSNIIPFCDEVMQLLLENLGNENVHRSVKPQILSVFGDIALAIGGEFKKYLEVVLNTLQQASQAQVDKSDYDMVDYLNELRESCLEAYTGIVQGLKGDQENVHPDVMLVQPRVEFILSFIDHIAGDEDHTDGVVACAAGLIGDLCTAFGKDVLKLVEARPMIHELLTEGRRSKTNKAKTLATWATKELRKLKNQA
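FRET biosensor (snurportin 1 IBB flanked by EYFP and cerulean), 50 nM, with compound 5 min, then 0.125 microM importin beta in PBS, 1 mM DTT, 0.02% Tween-20, 0.1% BSA. CFP/YFP ratio read after 45 min at room temperature; pre-read flags interference.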
miR-21 FLuc = miR-21 reporter, rising signal; AID 2288; Potency, µM (highest dose often 38.3 µM), without a hit: at the highest dose reporter change, positive = more light; 340,000 tested, under 10 active; HeLa miR-21 FLuc reporter, luciferase, 48 h; active = well fitted rising curve with a large enough effect; inconclusive = small, poorly fitted or top-dose-only effect; inactive = no such curve, though single readings can be large or run the other way;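 note: % of control where 0% means no effect; miR-21 action dims this reporter so a rising signal means less miR-21 action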
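Using DMEM plus 10% FBS, HeLa miR-21-FLuc cells are incubated with test compounds (final up to about 40uM) for 48 hours; firefly luciferase signal is then imaged following reagent-mediated lysis.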
GLA inh pH 4.5 = blocks human alpha-galactosidase A at pH 4.5; 230,000 tested, under 10 active; purified enzyme, 4-MU-alpha-Gal fluorescence, pH 4.5; activity change, negative = inhibition, % at 105 µM; P06280; inconclusive = small, poorly fitted or top-dose-only inhibition, or a rising curve; inactive = flat fitted curve, though single readings scatter; no compound was filed as active;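 note: 0% = full activity with enzyme and -100% = basal without enzyme; dose as in the result columns while the protocol names 77 µM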
Rango release inh = inhibitors of RanGTP-induced Rango-importin beta complex dissociation; Biochemical FRET Rango-importin beta, RanGTP-induced dissociation; Potency, µM (top dose mostly 46.1 µM), without a hit: at the highest dose activity change, negative = inhibition; 340,000 tested, 0.071% active; active means falling FRET ratio curve, often poorly fitted, with flat reads before Ran was added; inconclusive means other falling curves, or compound fluorescence or quenching; inactive means flat or rising ratio curve;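 note: potency is the fitted concentration of half-maximal effect; % of control where 0% means no effect; nearly all actives have a fitted effect of over 45% in size; -100% = wells without RanGTP and RCC1; the record marks most hits as doubtful in a second field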
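Rango FRET biosensor (snurportin-1 IBB flanked by N-terminal EYFP and C-terminal CFP10) at 0.1 uM, with 0.25 uM importin beta in PBS, 1mM DTT, 0.02% Tween-20, 0.1% BSA. 0.6 uM Ran, 2mM GTP and 0.2 uM RCC1 were then added for 45 min at room temperature. Inhibition read as loss of FRET rise.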
An asterisk follows results filed as active; ? = inconclusive; / = no result given; & = joins results of further samples. Only part of the results is shown (hit frequency here may not be typical).

SMILES	Rango complex inh	miR-21 FLuc	GLA inh pH 4.5	Rango release inh
O=C(c1ccc(C(F)(F)F)cc1)N1CCN(c2ccc(N3CCOCC3)nn2)CC1	-0.5%	/	/	-10%
O=C(C1CCC(Cn2c(=S)[nH]c3ccccc3c2=O)CC1)N1CCN(c2ccccn2)CC1 (stereo unspecified)	1.3%	0%	-19	-17%
COc1ccc(C)cc1NC(=O)Nc1ccc2c(c1)CCC2	-1.4%	-8%	/	-3%
CN(C)S(=O)(=O)c1ccc(NC(=O)COC(=O)CC2CC3CCC2C3)cc1 (stereo unspecified)	-6.6%	-1%	0	-28%
CCCC(=O)NC(=S)Nc1ccccc1OC	-0.3%	-5%	3	-13%
CCCNS(=O)(=O)c1ccc(N2CCCC2=O)c([N+](=O)[O-])c1	4.7%	-5%	-7	8%
Nc1nc(-c2cc3ccccc3o2)cs1	-0.1%	-76%	-3	-4%
COC(=O)C1=NN[C@H](C(=O)OC)[C@H]1c1ccccc1	-0.1%	-4%	2	-6%
COc1cccc(C(=O)OC2CCN(C)CC2)c1	7.2%	0%	-5	7%
CCOc1cc(NC(=O)C2CC2)c(OCC)cc1NC(=O)CCn1nnc2ccccc21	9.9%	0%	2	12%
S=C(Nc1ccccc1)N(CCN1CCOCC1)Cc1cccc(Cl)c1	-1.2%	-3%	-6	-1%
COc1cccc(NC(=O)CN(C)C(=O)c2ccc(S(=O)(=O)Nc3ccccc3F)cc2)c1	-1.5%	/	/	9%
CCOc1cc(C2C3=C(CC(C)(C)CC3=O)N(CCCOC)C3=C2C(=O)CC(C)(C)C3)ccc1O	?	-3%	/	?
CC1(C)C(/C=C/C=C/C=C/C=C2\N(CCCCS(=O)(=O)O)c3ccc4ccccc4c3C2(C)C)=[N+](CCCCS(=O)(=O)[O-])c2ccc3ccccc3c21	3.2%	/	/	-2%
Cc1cccc(NC(=O)C2CC(O)CN2C(=O)Oc2ccccc2)c1 (stereo unspecified)	-1.8%	0%	/	-1%
O=c1ccc(NS(=O)(=O)c2ccccc2)cn1Cc1ccc(Cl)c(Cl)c1	?	0%	-29	-12%
O=S(=O)(c1ccc(N2CCN(Cc3ccccc3)CC2)nc1)N1CCCC1	-3.9%	/	/	4%
CNS(=O)(=O)c1ccc(C(=O)NCC(=O)NCCc2ccc3c(c2)OCCO3)cc1	-2.2%	/	/	28%
Cc1ccc(C(=O)NN2CC(O)=C(c3nc(-c4cccc([N+](=O)[O-])c4)cs3)C2=N)cc1	0.6%	-11%	0	33%
CC1Sc2ccc(S(=O)(=O)CCC(=O)N(C)Cc3ccco3)cc2NC1=O (stereo unspecified)	0.5%	2%	/	-11%
C/C(N)=C(/C#N)C(=O)COC(=O)c1cccc(O)c1	-1.1%	-23%	-5	4%
COCc1ccc(C(=O)N2CCCC(Nc3ccc(F)c(F)c3)C2)s1 (stereo unspecified)	0.4%	-5%	/	-2%
CC1CCN(S(=O)(=O)c2ccc3ncn(CC(=O)N4CCN(C)CC4)c(=O)c3c2)CC1	2.0%	-1%	-14	-4%
O=C(COC(=O)c1ccc2c(c1)OCCO2)Nc1ccc(F)cc1F	-1.7%	/	/	10%
COC(=O)C1CCN(C(=O)COC(=O)c2ccc(=O)n(Cc3ccccc3)n2)CC1	5.6%	/	/	-4%
O=C(CN1C(=O)CSc2ccc(S(=O)(=O)N3CCOCC3)cc21)NCCCN1CCc2ccccc2C1	-0.5%	4%	-2	-1%
COc1ccc(Cc2ccccc2C(=O)O)cc1	1.7%	/	/	0%
CC(C)CNS(=O)(=O)c1cc2c3c(c1)CCC(=O)N3CCC2	0.1%	2%	/	1%
O=C(CCCc1c[nH]c2ccccc12)Nc1ccc(S(=O)(=O)Nc2ncccn2)cc1	-2.8%	-1%	-25	-8%
CCOc1ccc(NC(=O)CN2C(=O)CSc3ccc(S(=O)(=O)N4CCOCC4)cc32)cc1	0.6%	0%	/	2%
O=C(Cn1cnc2c(OCc3ccccc3)ncnc21)NCc1ccccc1	0.9%	/	/	13%
COC(=O)Nc1ccc(S(=O)(=O)Nc2ncccn2)cc1	3.8%	-1%	7	-11%
NNC(=O)CN1C(CN2CCOCC2)=Nc2ccc(Br)cc2C1c1ccccc1 (stereo unspecified)	?	0%	8	16%
COC(=O)/C=C1\S/C(=N/NC(=O)c2ccc(OC)cc2)NC1=O	2.3%	0%	-5	14%
Cc1ccc(S(=O)(=O)N2CCN(C(=O)C3CC3C)CC2)c(C)c1 (stereo unspecified)	0.8%	/	/	1%
O=C(c1ccc(F)cc1)N1CCCCC(S(=O)(=O)c2ccccc2)C1=O (stereo unspecified)	2.5%	-15%	7	11%
CC(C)OC(=O)CC12CN3CN(C1)CC(CC(=O)OC(C)C)(C3)C2=O	-5.3%	-2%	3	34%
O=C(CN1C(=O)COc2ccccc21)N(Cc1ccccc1)Cc1ccccn1	-1.1%	-24%	1	-6%
Nc1ccn(CC(=O)NCc2ccc3c(c2)OCO3)c(=O)n1	-3.7%	/	/	-2%
O=C(C1CCC1)N1CCN(S(=O)(=O)c2ccc(F)cc2)CC1	?	/	/	40%
CN1CCN2c3ccccc3Cc3ccccc3C2C1 (stereo unspecified)	-1.7%	20%	-1&-29&-9	-1%
COCCn1c(=NC(=O)/C=C/c2ccccc2)sc2cc(NC(C)=O)ccc21	?	-12%	8	?
Brc1ccc(-c2nnc3sc(CN4CCC5(CC4)OCCO5)cn23)cc1	3.9%	-6%	0	-25%
C/C(=N\NC(=O)c1ccn(C)n1)c1ccc(NC(=O)C2CCC2)cc1	0.3%	-23%	/	-23%
COc1ccc(C(C#N)c2cnccn2)cc1OC (stereo unspecified)	0.0%	/	/	6%
CCCNC(=O)N1C2=NC(C(=O)OC)=C(C(=O)OC)[C@@H]3N(Cc4ccccc4)c4ccccc4[C@]23C[C@H]1CO	-3.1%	/	/	0%
Cc1cccc(C(C(=O)NC2CCCCC2)N(Cc2cccnc2)C(=O)c2csnn2)c1 (stereo unspecified)	-1.0%	-2%	/	-14%
C=CCn1c(SCC(=O)NCCc2ccccc2)nnc1C(C)NC(=O)c1cccs1 (stereo unspecified)	-8.9%	0%	-7	0%
COc1ccc(N2CC(O)=C(c3n(C)c4ccccc4[n+]3C)C2=N)cc1	-2.4%	1%	-4	9%
FC(F)(F)c1cc(-c2ccccc2)nc(NC2CCCC2)n1	6.6%	0%	4	-10%

3 of the entries above in order of their number in miR-21 FLuc, descending:
SMILES	Rango complex inh	miR-21 FLuc	GLA inh pH 4.5	Rango release inh
C=CCn1c(SCC(=O)NCCc2ccccc2)nnc1C(C)NC(=O)c1cccs1 (stereo unspecified)	-8.9%	0%	-7	0%
Brc1ccc(-c2nnc3sc(CN4CCC5(CC4)OCCO5)cn23)cc1	3.9%	-6%	0	-25%
C/C(=N\NC(=O)c1ccn(C)n1)c1ccc(NC(=O)C2CCC2)cc1	0.3%	-23%	/	-23%

The results go on.
SMILES	Rango complex inh	miR-21 FLuc	GLA inh pH 4.5	Rango release inh
O=C(Nc1ccccc1F)c1cccc(C(=O)Nc2ccccc2F)c1	12%	-13%	/	6%
COc1ccc(-c2cc(C(F)(F)F)nc(SCC(=O)NCCN3CCOCC3)n2)cc1OC	1.1%	-9%	5	-1%
Cc1ccc(C2OC3=C(C(=O)CC(C)(C)C3)C(N)=C2C#N)o1 (stereo unspecified)	2.1%	0%	-8	-5%
O=C(c1sc2ccccc2c1Cl)N(Cc1cccs1)C1CCS(=O)(=O)C1 (stereo unspecified)	-3.6%	-4%	-9	2%
COC(=O)c1[nH]c2cc(OC)ccc2c1NC(=O)CCN1CCN(c2cccc(C)c2C)CC1	-4.3%	15%	-27	-14%
CCCN1CCC(=O)N([C@H](CSc2ccccc2)CC(C)C)CC1	-0.5%	-54%	/	3%
COc1ccccc1N1CCN(C2CCN(S(=O)(=O)c3ccc4ccccc4c3)CC2)CC1	2.4%	-7%	-5	-18%
Cc1ccc(S(=O)(=O)NCc2cn3ccccc3n2)c(C)c1	-1.6%	3%	/	10%
O=[N+]([O-])c1ccc(-c2nc(NCc3ccccc3)c3ccccc3n2)cc1	-2.1%	-9%	4	-7%
COc1nn(CC(=O)N2N=C(C(F)F)CC2(O)C(F)F)cc1[N+](=O)[O-] (stereo unspecified)	-0.7%	-10%	0	-11%
Cc1c(C)c(C)c(CO/N=C/c2cccs2)c(C)c1C	2.3%	8%	-6	7%
CCn1c(SCC(=O)N2CCOCC2)nc2oc3c(Cl)cc(Cl)cc3c(=O)c2c1=O	/	1%	0	/
CC(C)(C)c1ccc(CCC(CC(=O)O)CC(=O)O)cc1	2.0%	-2%	-5	3%
COc1cccc(-c2cc(-c3cccnc3)nc(N)c2C#N)c1	?	7%	9	-20%
C=CCn1c(NC(=O)c2ccco2)nc2ccccc21	1.5%	1%	/	21%
CC(C)(C)OC(=O)NCCCCCc1nnc(SCc2ccccc2)o1	-0.2%	15%	-7	8%
O=C(Cc1ccc(NC(=O)C2CCCN(C(=O)C3CCC3)C2)cc1)Nc1cccc(C(=O)N2CCCCC2)c1 (stereo unspecified)	-0.4%	/	/	27%
COc1ccc(NC(=S)NC(NC(=O)CCl)C(Cl)(Cl)Cl)c([N+](=O)[O-])c1 (stereo unspecified)	-0.1%	5%	5	-7%
Cc1ccc(CNCC2CCCO2)o1 (stereo unspecified)	0.4%	-1%	2	9%
COc1ccc(Nc2nc(N3CCN(C)CC3)nc3ccccc23)c(OC)c1	2.2%	8%	6	3%
Cc1ccc(/C=C/C2=NN(C)C(=O)CC2)cc1	6.2%	-49%	5	9%
COc1ccc(-c2cn3c(C)c(C(=O)NC(C)C)sc3n2)cc1	-1.8%	-25%	9	-1%
CCOC(=O)c1ccc(NC(=S)N2CCSC2c2ccc(Br)cc2)cc1 (stereo unspecified)	-0.3%	-9%	-8	12%
COc1ccccc1C(=O)NC(=O)CSc1nc2nc(C)cc(C)n2n1	-3.0%	/	/	0%
CN(Cc1ccccc1)C(=O)NC1CCCCC1	-2.9%	-15%	0	-8%
O=[N+]([O-])c1ccc(Cl)cc1CN1CCCCCC1	0.2%	-1%	/	0%
COc1ccc(CCn2c(-c3cccc([N+](=O)[O-])c3)nc3nc4ccccc4nc32)cc1OC	1.1%	-2%	9	2%
COc1ccc(S(=O)(=O)NNC(=O)Nc2ccccc2OC)c(OC)c1	2.0%	-2%	/	11%
CCOC(=O)N1CCN(S(=O)(=O)c2ccc(F)c(C(=O)Nc3ccc(C)c(Cl)c3)c2)CC1	6.2%	6%	1	-1%
C[C@H](O)CC1=C[C@H](O)[C@@H](C)OC1=O	-4.4%	-5%	-2	-5%
OC1CN=C2CCCc3c2n(c2ccc(Cl)cc32)C1 (stereo unspecified)	?	-16%	-3	?
NCCOc1ccccc1-c1ccccc1	-1.0%	-4%	-1	-3%
COc1ccccc1NS(=O)(=O)c1ccc(C)c(NC(=O)c2ccc(S(=O)(=O)N3CCCCCC3)cc2)c1	-3.7%	23%	6	13%
S=c1[nH]nc(-c2cc(-c3ccccc3)n[nH]2)n1/N=C/C=C/c1ccco1	-4.6%	-15%	-2	-16%
O=C1C(NS(=O)(=O)c2cccs2)=C(N2CCN(Cc3ccccc3)CC2)C(=O)c2ccccc21	?	0%	-13	-13%
COc1ccc(-c2nnc3cccc(Cl)n23)c(OC)c1	-1.7%	-8%	/	0%
CCOC(=O)C(=Nc1ccccc1)NO	-0.6%	-13%	0	5%
Cc1ccc(C(=O)OCN2C(=O)c3ccccc3C2=O)c(O)c1	6.0%	0%	/	7%
Fc1ccccc1NC(=S)NCCc1ccc(Cl)cc1	5.3%	-38%	/	10%
O=C(CCCOc1ccccc1)Nc1ccc(S(=O)(=O)Nc2ccccn2)cc1	-1.0%	0%	-2	-2%

Compounds listed so far with a CF3 group:
SMILES	Rango complex inh	miR-21 FLuc	GLA inh pH 4.5	Rango release inh
O=C(c1ccc(C(F)(F)F)cc1)N1CCN(c2ccc(N3CCOCC3)nn2)CC1	-0.5%	/	/	-10%
FC(F)(F)c1cc(-c2ccccc2)nc(NC2CCCC2)n1	6.6%	0%	4	-10%
COc1ccc(-c2cc(C(F)(F)F)nc(SCC(=O)NCCN3CCOCC3)n2)cc1OC	1.1%	-9%	5	-1%
